RE007 growth inh – less growth of the S. pombe RE007 Vpr strain; Potency, µM (series often up to 92.2 µM), for inactives: at the highest dose activity change, negative = less growth; AID 651644; S. pombe RE007 Vpr strain, BacTiter-Glo ATP luminescence, 24 h; control for the full effect not named in the record; 360,000 compounds, 0.21% hits; active = well fitted falling curve with a large enough effect; inconclusive = small, poorly fitted or top-dose-only effect; inactive = no such curve, though single readings can be large or run the other way;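 note: % is set by controls: 0 for no effect and ±100 for the full control effect; nearly all actives have a fitted effect of over 50% in size; the assay follows cell death caused by Vpr and the record does not say whether a fall means rescue or toxicity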
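Fission yeast RE007 carrying one integrated HIV-1 vpr copy, seeded at OD 0.01 in PMG+AL medium with 23 nL pinned compound. Grown 24 h at 30 degrees; viability read by BacTiter-Glo luminescence after 5 min.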
Cruzain noTriton – blocks cruzain activity in detergent-free assay. AID 1476. Potency, µM, for the others: max response, negative = inhibition, most hits filed as inhibitors. purified cruzain, Z-FR-AMC fluorescence, no detergent. P25779. 200,000 compounds, 2.3% hits; active = well fitted curve in the direction sought with a large enough effect; inconclusive = small, poorly fitted or top-dose-only effect, or another doubt; inactive = no such curve, though single readings can be large; an effect the other way counts as inactive or inconclusive;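 note: plate controls were enzyme without inhibitor for no effect and buffer without enzyme for full effect; nearly all actives have a fitted effect of over 40% in size; top concentration of the series not given in the record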
Target sequence (P25779 123-467 limits assumed): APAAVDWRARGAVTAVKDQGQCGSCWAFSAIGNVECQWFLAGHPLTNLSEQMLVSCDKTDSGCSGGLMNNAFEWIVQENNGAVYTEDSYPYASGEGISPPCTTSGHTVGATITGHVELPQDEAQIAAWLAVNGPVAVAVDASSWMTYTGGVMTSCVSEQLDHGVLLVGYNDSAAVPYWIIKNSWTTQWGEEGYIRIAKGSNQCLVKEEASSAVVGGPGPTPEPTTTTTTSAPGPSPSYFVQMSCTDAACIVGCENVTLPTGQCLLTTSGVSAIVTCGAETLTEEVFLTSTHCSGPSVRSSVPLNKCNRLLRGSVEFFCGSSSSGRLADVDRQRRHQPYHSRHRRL
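Purified cruzain at 1.5 nM, pre-incubated 15 min with compound at room temperature in 100 mM sodium acetate pH 5.5, 5 mM DTT, 0.00005% Triton X-100. Reaction started with 2 uM Z-FR-AMC; AMC fluorescence increase over 60 s gives rate.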
SARS PLP yeast – SARS-CoV PLP inhibition in yeast; S. cerevisiae expressing SARS-CoV PLpro, growth rescue; control for the full effect not named in the record; Potency, µM (highest dose often 32.9 µM), for the others: at the top dose activity, positive = growth rescue; 330,000 compounds, 0.19% hits; note: 0% is about no effect; nearly all actives have a fitted effect of over 55% in size; growth read by luminescence after 48 h
StopGo reporter – lowers the luciferase signal of an FMDV 2A StopGo reporter. 410,000 compounds, 1.2% hits. Potency, µM (doses to about 57.9 µM), for inactives: at the top dose signal change, negative = less light. human cells with a luciferase reporter of 2A StopGo recoding; control for the full effect not named in the record; active = well fitted falling curve with a large enough effect; inconclusive = small, poorly fitted or top-dose-only effect; inactive = no such curve, though single readings can be large or run the other way; tested in HEK293T cells; note: % is set by controls: 0 for no effect and ±100 for the full control effect; nearly all actives have a fitted effect of over 45% in size; luciferase light after 4 h
NS1 function inh – blocks influenza NS1 protein function | 270,000 compounds, 0.4% hits | Potency, µM (top dose mostly 46.1 µM), inactives show top-dose activity, positive = more growth | S. cerevisiae slowed by influenza A NS1, growth recovery by OD600 | AID 2326; note: actives are rising curves; nearly all actives have a fitted effect of over 50% in size
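A cell-based growth assay was used: compounds that relieve NS1-induced slow growth of budding yeast raise OD600. Assay medium was yeast nitrogen base with ammonium sulphate and -URA supplement, pH 6.0, with 2% galactose.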
LASV entry inh – inhibitors of Lassa virus binding or cell entry | 300,000 compounds, 1.2% hits | Potency, µM (top dose mostly 37.9 µM), for the others: at the highest dose activity change, negative = inhibition, actives largely listed as inhibitors | Lassa virus pseudotype entry inhibition, cell reporter; control for the full effect not named in the record; active means well fitted inhibition curve with a large enough effect; inconclusive means small, poorly fitted or top-dose-only effect, or effect the other way; inactive means flat fitted curve, though single readings scatter; tested in HEK293 cells; note: % is set by controls: 0 for no effect and ±100 for the full control effect; nearly all actives have a fitted effect of over 50% in size; luciferase read-out
Marburg entry inh – Marburg virus entry inhibition. Marburg virus pseudotyped entry inhibition, cell reporter; control for the full effect not named in the record; about a third of the inactives were read at about 46 µM. Potency, µM (series often up to 37.8 µM), for inactives: top-dose activity change, negative = inhibition, actives largely listed as inhibitors. 300,000 compounds, 1.8% hits. AID 540276; active = well fitted inhibition curve with a large enough effect; inconclusive = small, poorly fitted or top-dose-only effect, or effect the other way; inactive = flat fitted curve, though single readings scatter; tested in HEK293 cells; about a fifth of its hits are not listed in these tables; note: % is set by controls: 0 for no effect and ±100 for the full control effect; luciferase read-out
Cruzain Triton – inhibitors of Trypanosoma cruzi cruzain with detergent; 200,000 compounds, 0.43% hits; Potency, µM, without a hit: max response, negative = inhibition, actives largely listed as inhibitors; AID 1478; purified cruzain, Z-FR-AMC fluorescence, 0.01% Triton; active = well fitted curve in the direction sought with a large enough effect; inconclusive = small, poorly fitted or top-dose-only effect, or another doubt; inactive = no such curve, though single readings can be large; an effect the other way counts as inactive or inconclusive;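 note: plate controls were neutral wells for no effect and buffer without enzyme for full effect; nearly all actives have a fitted effect of over 40% in size; top concentration of the series not given in the record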
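Cruzain (1.5 nM) preincubated 15 min at RT with compound in 100 mM sodium acetate pH 5.5, 5 mM DTT, 0.01% Triton X-100. Reaction started with 2 uM Z-FR-AMC; AMC fluorescence (ex 360/em 450 nm) change over 60 s gave rate.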
Numbers without * were called inactive; ? = inconclusive; · = no result given; & = joins results of further samples; [ ] = remark or other dose. Unless noted, calls come from the whole dose curve; as a rule, active means well fitted rising curve with a large enough effect; inconclusive means small, poorly fitted or top-dose-only effect; inactive means no such curve, though single readings can be large or run the other way. Potency is the fitted concentration of half-maximal effect.

Start of the listing, in advance:
#	Molecule	RE007 growth inh	Cruzain noTriton	SARS PLP yeast	StopGo reporter	NS1 function inh	LASV entry inh	Marburg entry inh	Cruzain Triton
1	COc1cc(C(=O)N2CCC(C(N)=O)CC2)ccc1OCc1c(C)noc1C	3%	·	-2%	-5%	·	7%[46.1 µM]	0%[46.1 µM]	·
2	COc1ccccc1C(=O)COC(=O)CN1C(=O)NC2(CCCC2)C1=O	-22%	·	4%	14%	·	22%[46.1 µM]	-23%	·

Main list, repeating the preview:
#	Molecule	RE007 growth inh	Cruzain noTriton	SARS PLP yeast	StopGo reporter	NS1 function inh	LASV entry inh	Marburg entry inh	Cruzain Triton
1	COc1cc(C(=O)N2CCC(C(N)=O)CC2)ccc1OCc1c(C)noc1C	3%	·	-2%	-5%	·	7%[46.1 µM]	0%[46.1 µM]	·
2	COc1ccccc1C(=O)COC(=O)CN1C(=O)NC2(CCCC2)C1=O	-22%	·	4%	14%	·	22%[46.1 µM]	-23%	·
3	CCc1nn(CC(=O)NCCc2ccc(OC)c(OC)c2)c(=O)c2cc3occc3n12	·	?	·	-10%	·	?	12%[46.1 µM]	-6.8%
4	CCOC(=O)C1=C(CSc2nccn2C)NC(=O)NC1c1ccc2c(c1)OCO2 (stereo not given)	-11%	-5%	6%	-22%	4%	5%	2%	3.3%
5	CCC1Oc2ccc(C)cc2N(CC(=O)NCc2cc(OC)ccc2OC)C1=O (stereo not given)	-9%	?	-1%	·	-1%	0%	8%	2.1%
6	Cc1c(CC(=O)N2CCCCC2)c(=O)oc2cc(O)ccc12	·	-20%	·	16%	·	22%[46.1 µM]	11%[46.1 µM]	-12%
7	BrC(/C=C\c1ccccc1)=N/Nc1nc(N2CCOCC2)nc(N2CCOCC2)n1	-16%	·	-5%	0%	-6%	4%	?	·
8	CSc1nc(C)c2c(n1)N(c1ccc(C(C)C)cc1)CC2	0%	?	2%	8%	4%	-15%	1%	-7.1%
9	Cc1ccc(C)c(OCC(O)CN2CCC(Cc3ccccc3)CC2)c1 (stereo not given)	3%	·	-1%	?	-22%	·	·	·
10	COc1ccccc1N1C(=O)CC(Sc2n[nH]c(-c3cccc(C)c3)n2)C1=O (stereo not given)	-17%	-8%	-83%	-15%	-64%	8%	4%	-2.3%
11	Cc1ccccc1N(CC(=O)NC1CCCC1)C(=O)C1(C)CC(=O)N=C2C=CC(Cl)=CN21 (stereo not given)	-6%	·	-1%	-3%	6%	-1%	-1%[46.1 µM]	·
12	CC(=O)c1cccc(NC(=S)NCCCCc2ccccc2)c1	-3%	7%	7%	0%	-11%	-10%	-30%	-20%
13	CCc1ccccc1NC(=O)c1ccccc1N1C(=O)C2C3C=CC(C3)C2C1=O (stereo not given)	-5%	·	5%	-16%	10%	·	·	·
14	COc1ccccc1NC(=S)N1CCN(c2cccc(C)c2C)CC1	-29%	·	-5%	-29%	10%	·	·	·
15	COc1ccc(-c2cccc(C(=O)Nc3ccc(OC)c(OC)c3)c2)cc1	-2%	8%	2%	-4%	-5%	?	-24%	-3.3%
16	C=CCOc1ccc(CNc2ccc3[nH]c(=O)[nH]c3c2)cc1OC	-18%	·	0%	-4%	·	?	17%[46.1 µM]	·
17	O=C(NC1CCOCC1)C1CCC(=O)N(Cc2cccc(C(F)(F)F)c2)C1 (stereo not given)	-9%	·	-4%	20%	8%	·	·	·
18	CCOC(=O)C1CCN(C(C)=C2C(=O)c3ccccc3C2=O)CC1	4%	-12%	2%	2%	-64%	5%	26%&26%[46.1 µM]	-0.8%
19	Cc1cc(C)c(S(=O)(=O)Nc2cc(C)on2)c(C)c1	9%	·	0%	26%	-40%	?	?	·
20	Cc1nnc2c3ccccc3nc(Nc3cccc(O)c3)n12	·	-6%	·	-14%	·	-5%[46.1 µM]	·	-6.7%
21	CCN(CC)S(=O)(=O)c1ccc(-c2cc(C(=O)OC)sc2C(F)(F)F)cc1	5%	·	-2%	0%	6%	-13%	2%	·
22	O=C(N/C(=C/c1ccccc1)C(=O)N1CCCCCC1)c1ccccc1	-18%	·	3%	34%[activator]	·	8%[46.1 µM]	-20%[46.1 µM]	·
23	O=C(O)c1cccc(NC(=O)c2ccccc2NC(=O)c2ccco2)c1	2%	·	3%	-16%	14%	·	·	·
24	CCC(C)N(C(=O)COC(=O)Cc1n[nH]c(=O)c2ccccc12)C1CCS(=O)(=O)C1 (stereo not given)	5%	-3%	-7%	15%	?	20%	-3%	-0.5%
25	c1ccc(Nc2nc(CSc3ncn[nH]3)cs2)cc1	-6%	·	0%	42%[activator]	·	-4%	-12%[46.1 µM]	·
26	CC(/C=C/c1ccc(O)cc1)=NNc1ccccc1	20%	·	·	7%	·	·	?	·
27	CC(C)Oc1cccc(C(=O)C2CCCN(S(C)(=O)=O)C2)c1 (stereo not given)	6%	·	0%	4%	3%	-10%	19%[46.1 µM]	·
28	CCN1CCCC1CNC(=O)C1c2cc(OC)c(OC)cc2C(=O)N(C)C1c1cccnc1 (stereo not given)	-17%	3%	5%	0%	3%	-3%	-6%&-6%	2.6%
29	CCN1CCN(c2ccc(NC(=O)c3ccco3)cc2)CC1	1%	·	4%	43%[activator]	10%	·	·	·
30	Cn1c(SCC(=O)NC2CCCCCC2)nnc1-c1ccco1	4%	·	-4%	0%	16%	·	·	·
31	COc1ccccc1C(=O)OCc1cc(=O)n2nc(-c3cccs3)sc2n1	·	-4%	·	6%	·	10%[46.1 µM]	·	-5.7%
32	COC(=O)c1cc(Cl)cc(Cl)c1OS(=O)(=O)N(C)C	1%	·	-3%	-20%	·	7%[46.1 µM]	9%[46.1 µM]	·
33	O=C(Nc1ccc2nc(-c3ccco3)c(-c3ccco3)nc2c1)N1CCCCCC1	-1%	2µM*	-5%	-12%	?	-10%	-17%&-17%	14µM*
34	CCOc1ccc(N2CC(C(=O)N3CCCCCC3)CC2=O)cc1 (stereo not given)	-20%	·	10%	13%	6%	-16%[46.1 µM]	-2%[46.1 µM]	·
35	O=C(CS(=O)(=O)c1ccccc1)c1cc2cc(F)ccc2oc1=O	15%	·	-5%	38%[activator]	14%	·	·	·
36	CCOc1ccccc1NC(=O)COc1coc(CN2CCc3ccccc3C2)cc1=O	-6%	·	-1%	?	·	-21%	-9%	·
37	COc1ccc(NC(=O)c2cccc(OS(=O)(=O)N(C)C)c2)cc1	1%	·	-1%	-6%	-7%	?	?	·
38	CCOc1cc(C)nc(N2CCC(C(=O)NCC3CCCO3)CC2)n1 (stereo not given)	15%	·	·	-6%	·	-20%	-13%[46.1 µM]	·
39	Cc1[nH]nc(C(=O)NN=Cc2ccccc2Cl)c1N=NN(C)C	-11%	·	·	25%	·	?	?	·
40	O=C(Nc1ccc(S(=O)(=O)N2CCCCCC2)cc1)c1cc(=O)c2ccccc2o1	·	-14%	·	-1%	·	0%[46.1 µM]	7%[46.1 µM]	-3.3%
41	O=c1[nH]c2ccc(Cl)cc2c(-c2ccccc2)c1N1CCN(c2ccccn2)CC1	14%	-4%	-3%	8%	-77%	?	2.3µM*	-6.9%
42	Cc1nn(CCC(=O)Nc2ccc(Cl)cc2)c(C)c1S(=O)(=O)N1CCCCC1	·	?	·	-23%	·	-1%[46.1 µM]	·	-2.6%
43	CCN1CCN(CCCNC(=O)c2cnn(-c3ccc(C)cc3)c2C2CCN(C(=O)OC(C)(C)C)CC2)CC1	·	6%	·	47%[activator]	·	-28%[46.1 µM]	·	-0.2%
44	c1ccc2[nH]c(C3CC3)nc2c1	1%	·	-1%	-7%	-5%	1%[46.1 µM]	7%[46.1 µM]	·
45	Cc1c(C)c2c(OCC(=O)NCc3ccco3)cc3c(c2oc1=O)CCC(C)(C)O3	8%	·	1%	-13%	12%	·	·	·
46	CCOc1ccc(N=NC2C(=O)N(C(N)=S)N=C2C)cc1 (stereo not given)	?	·	-2%	56%[activator]	-26%	·	·	·
47	Cc1cccc(OCC(=O)OCC(=O)Nc2sccc2C(N)=O)c1	-5%	·	-7%	-7%	·	-4%	-5%[46.1 µM]	·
48	COc1cccc(NC(=O)CCC2CCN(C(=O)c3ccc(C(C)=O)s3)CC2)c1	1%	·	23%	-14%	-1%	·	·	·
49	Cc1cc(OC(=O)c2c(Cl)cc(Cl)cc2Cl)nc(C)n1	-4%	7%	1%	-22%	-24%	-28%	-26%	-2.6%
50	COc1ccc(OC)c(NC(=O)N2CC(C)Oc3ccc(C)cc32)c1 (stereo not given)	·	-2%	·	-12%	·	-28%[46.1 µM]	·	-3.1%
51	CCN1CCN(Cc2ccc(NC(=O)c3ccc(C)c(NC(=O)C4=NN(c5ccccc5)C(=O)C4)c3)cc2C(F)(F)F)CC1	1%&17%	·	-1%	4%&-14%	3%	·	·	·
52	NC1=NC(=O)CC(C(=O)NCc2ccccc2)S1 (stereo not given)	-30%	-11%	-12%	-15%	4%	0%	1%[46.1 µM]	1.8%
53	COc1ccc(C)cc1S(=O)(=O)NCCc1ccccc1	-21%	-8%	-5%	90%[activator]	-11%	4%	0%	0.1%
54	Cc1ccccc1OCCNc1cc(N2CCCCC2)ccc1[N+](=O)[O-]	15%	?	-3%	-8%	?	-17%	-2%[46.1 µM]	-0.3%
55	CCOC(=O)c1ccc(NC(=O)Cc2coc3cc4c(cc23)CCC4)cc1	-1%	6%	-19%	-7%	4%	-5%	0%	-4.6%
56	COc1ccc(CCNS(=O)(=O)c2cn(C)nc2C)cc1	13%	·	9%	16%	4%	·	·	·
57	O=S(=O)(c1cccc(S(=O)(=O)N2CCOCC2)c1)N1CCCCC1	33%	15%	?	7%	2%	4%	1%	-8.7%
58	COc1ccc(NN=Nc2nc3c([nH]2)c(=O)n(C)c(=O)n3C)cc1	5%	·	1%	20%	5%	2%[46.1 µM]	25%[46.1 µM]	·
